Rce1 inhib: inhibitors of yeast Ras-converting enzyme; Q03530; yeast membranes, quenched prenylated peptide cleavage fluorescence; calls only; 290,000 tested, 0.27% active; AID 2563;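 active = fall in fluorescence gain of 50% or more versus controls, with final raw signal at or below 3038400; inconclusive = same 50% fall but final raw signal above 3038400; inactive = fall in fluorescence gain under 50%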;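 note: plate controls were neutral control wells for no effect and wells lacking membranes for full effect; tested at 10 µM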
Target sequence (Q03530 whole entry, looked up): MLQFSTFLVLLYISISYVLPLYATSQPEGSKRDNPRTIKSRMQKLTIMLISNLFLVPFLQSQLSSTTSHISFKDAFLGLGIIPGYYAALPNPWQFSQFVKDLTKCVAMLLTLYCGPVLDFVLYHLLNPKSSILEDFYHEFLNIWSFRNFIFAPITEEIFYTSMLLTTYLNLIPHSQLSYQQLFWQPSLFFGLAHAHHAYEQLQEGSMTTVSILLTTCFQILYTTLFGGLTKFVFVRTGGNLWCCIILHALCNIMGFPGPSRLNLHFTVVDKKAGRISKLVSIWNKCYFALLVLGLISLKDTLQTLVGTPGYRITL
eIF4H inh: inhibitors of RNA binding by human eIF4H | inhibition, % at 35 µM | 290,000 tested, 0.94% active | eIF4H fluorescence polarization binding assay;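 active = 50% or more with normal probe brightness, or confirmed in later tests; inconclusive = above 50% with abnormal brightness, or retests that disagree; inactive = below 50% or failed in later tests; about a fifth of its hits are not listed in these tables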;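 note: calls also rest on retests at 20 µM and on dose response follow-up; 0% = protein and probe with vehicle and 100% = probe without protein; strong numbers were not always called active; many hits fall short of the cut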
UUG fidelity: modulators of start codon recognition fidelity in yeast; S. cerevisiae UUG-firefly luciferase reporter, luminescence/redox ratio; activity score, % at 18.7 µM; 350,000 tested, 0.13% active; AID 602363;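 active = replicate mean at a twofold rise or more, about +100% in these data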;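 note: firefly luciferase made from a UUG start codon reports start codon fidelity; reporter light over untreated wells divided by growth signal over untreated wells; some hits fall short of that in this replicate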
Env fusion inh: HIV envelope-mediated fusion inhibition. 360,000 tested, 1.1% active. inhibition, % at 12.3 µM. AID 651610. HeLa-JRFL Env/CEM21 cell fusion, luciferase;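 active = mean replicate inhibition score of at least 50 and every replicate individually at or above 50; inconclusive = only one of the two criteria met; inactive = mean below 50 and not all replicates reaching 50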;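 note: 0% = plate neutral controls and 100% = maraviroc near 300 nM; one replicate is shown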
CSC inhib: blocks cancer stem cells; inhibition, % at 7.5 µM; 300,000 tested, 1.1% active; cancer stem cell-like cells viability, luminescence;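 active = mean at 75% or more and at least half the replicates too; inconclusive = mean and replicates disagree; tested in HMLE shEcad cells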;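 note: 0% = median of negative and 100% = median of positive control wells; the first replicate is given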
MT1-MMP act inh: MT1-MMP (human) activation inhibition. P50281. 360,000 tested, 0.061% active. GFP/RFP ratio change, % at 20 µM. HT1080 RFP-PRO-GFP cells, GFP/RFP ratio fluorescence, overnight; percent of plate control window, DMSO zero;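 active = GFP/RFP ratio change of at least 30% with cell ATP level not reduced by more than half and red fluorescence within 50% of control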; note: strong numbers were not always called active
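Assay system – RFP-PRO-GFP reporter HT1080 cells · Compound dosing – single dose of 20 µM compound, 1% DMSO final · Incubation – overnight compound exposure at 37 °C · Measure – GFP/RFP fluorescence ratio · Benchmarks – DMSO wells and RFP-L50D-GFP cells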
PABP FP inh: blocks human PABP binding to poly(A) RNA; P11940; fluorescence polarization; inhibition, % at 35 µM; 290,000 tested, 1% active; AID 2014;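 active = 50% or more with normal probe brightness, or confirmed in later tests; inconclusive = above 50% with abnormal brightness, or retests that disagree; inactive = below 50% or failed in later tests; about a fifth of its hits are not listed in these tables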;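 note: calls also rest on retests at 20 µM and on dose response follow-up; controls were probe without protein and protein plus probe with vehicle; some compounds called inactive have numbers as strong as hits; many hits fall short of the cut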
eIF4H inh retest: second read-out of eIF4H inh, no call of its own (marks repeat the call); inhibition, %; compound at 20 µM; confirmation average;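 mean of two retest wells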
PABP FP inh retest: second read-out of PABP FP inh, no call of its own (marks repeat the call); inhibition, %; compound at 20 µM; confirmation repeats;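 mean of two retest wells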
MT1-MMP act inh RFP: second read-out of MT1-MMP act inh, no call of its own (marks repeat the call); RFP signal change, %; measured here: RFP expression control read;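 0 = vehicle wells; hits needed this value within 50% of zero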
The depositor's hits bear a star; i = inactive; ? = inconclusive; / = no result given. The list is partial; count on the stated rates, not on these rows.

SMILES	Rce1 inhib	eIF4H inh	UUG fidelity	Env fusion inh	CSC inhib	MT1-MMP act inh	MT1-MMP act inh RFP	PABP FP inh	others
CCNC(=S)Nc1ccc2c(c1)c(=O)n(C)n2CC=C(C)C	/	/	-9	-56	/	-2	0	/
Cc1ccc(S(=O)(=O)N2CCC(C)CC2)cc1[N+](=O)[O-]	i	0	/	10	/	-3	-2	-3
CC(C)(C)C(=O)Nc1ccc(C(=O)Nc2cccnc2)cc1	i	4	-7	-43	1	6	1	0
COc1ccc(Cl)cc1NC(=O)CCCNC(=O)c1ccc(Cl)cc1	i	2	-3	33	-1	-2	0	10
Cc1ncc(CO)c(CO)c1O	i	/	-9	14	0	2	5	/
O=C(NC1CCCCC1)c1ccc2c(c1)OCCO2	i	-12	-25	-12	2	1	2	2
CCc1noc(C)c1C(=O)N1CCCSC1=Nc1ccccc1OC	i	/	-15	-27	-13	0	2	/
CSCCC(NC(=O)c1ccccc1)C(=O)NCCc1ccccc1 (stereo not drawn)	i	-4	-9	4	-19	-4	-1	-10
CC(C)CNS(=O)(=O)c1cc(C(=O)OCC(=O)N2CCOCC2)c(Cl)cc1Cl	i	-7	17	5	-18	2	2	-2
O=C(CSC1=Nc2ccccc2C2=NC(c3ccccc3)C(=O)N12)NC1CCCCC1 (stereo not drawn)	i	-8	-15	-132	-17	-3	0	5
O=S(=O)(NCCc1ccccn1)c1cccs1	i	12	-7	/	/	-5	3	6
CCN1C(=O)C(CC(=O)Nc2ccc(C)cc2C)Nc2cc(S(=O)(=O)N(C)C)ccc21 (stereo not drawn)	i	1	/	31	-2	4	2	5
Cc1ccc(CN=Cc2[nH]c3ccc(Br)c(Cl)c3c2O)cc1	i	6	/	/	17	-54	6	10
Cc1cccn2c(=O)c(C=O)c(N3CCCCC3)nc12	i	5	-12	-6	-15	-1	5	10
CC(NC(=O)COC(=O)c1ccc([N+](=O)[O-])s1)c1ccccc1 (stereo not drawn)	i	2	0	2	1	3	5	4
COc1cccc(C2N(c3ccccc3)CCN2c2ccccc2)c1OC	i	-7	/	-1	13	0	3	-7
CCCCOC(=O)C(C)Sc1n[nH]c(=O)[nH]c1=O (stereo not drawn)	i	-7	/	-58	3	1	2	4
CCC(OC(=O)c1cccs1)C(=O)NCc1ccc2c(c1)OCO2 (stereo not drawn)	i	-9	-18	7	-1	2	0	-3
O=C1CC(N2CCN(c3ccc(F)cc3)CC2)C(=O)N1c1ccc(F)cc1 (stereo not drawn)	i	2	-5	26	-20	2	4	1
COc1ccc(Cc2noc(-c3ccc([N+](=O)[O-])cc3)n2)cc1OC	i	-8	/	1	10	2	-12	2
COc1ccc(C(C)=O)c(Oc2cc(NN3CCCCC3)c([N+](=O)[O-])cc2[N+](=O)[O-])c1	i	0	-22	3	27	-7	-1	-3
C#CCOCCOCCOCCNc1nc(N2CCN(C(=O)C([C@@H](C)CC)n3cc(C(N)Cc4ccc(O)cc4)nn3)CC2)nc(N2CCN(C(=O)[C@H](CCC(=O)O)n3cc(C(N)CO)nn3)CC2)n1 (stereo partly drawn)	i	-8	20	/	-9	3	3	10
CCN1CCN(CCOCCOc2ccccc2-c2ccccc2)CC1	i	30	/	/	63	/	/	-7
CCOC(=O)N1CCC(NC(=O)C2CCCN(Cc3nc(-c4ccc(CC)cc4)oc3C)C2)CC1 (stereo not drawn)	i	-12	/	21	11	-1	-24	12
O=c1oc(CCCO)cc2ccc(C#Cc3ccsc3)cc12	/	/	-12	-45	25	6	-6	/

Twelve structures from above, sorted by number of heavy atoms, descending:
SMILES	Rce1 inhib	eIF4H inh	UUG fidelity	Env fusion inh	CSC inhib	MT1-MMP act inh	MT1-MMP act inh RFP	PABP FP inh	others
C#CCOCCOCCOCCNc1nc(N2CCN(C(=O)C([C@@H](C)CC)n3cc(C(N)Cc4ccc(O)cc4)nn3)CC2)nc(N2CCN(C(=O)[C@H](CCC(=O)O)n3cc(C(N)CO)nn3)CC2)n1 (stereo partly drawn)	i	-8	20	/	-9	3	3	10
CCOC(=O)N1CCC(NC(=O)C2CCCN(Cc3nc(-c4ccc(CC)cc4)oc3C)C2)CC1 (stereo not drawn)	i	-12	/	21	11	-1	-24	12
COc1ccc(C(C)=O)c(Oc2cc(NN3CCCCC3)c([N+](=O)[O-])cc2[N+](=O)[O-])c1	i	0	-22	3	27	-7	-1	-3
COc1cccc(C2N(c3ccccc3)CCN2c2ccccc2)c1OC	i	-7	/	-1	13	0	3	-7
CCN1CCN(CCOCCOc2ccccc2-c2ccccc2)CC1	i	30	/	/	63	/	/	-7
CCc1noc(C)c1C(=O)N1CCCSC1=Nc1ccccc1OC	i	/	-15	-27	-13	0	2	/
CCC(OC(=O)c1cccs1)C(=O)NCc1ccc2c(c1)OCO2 (stereo not drawn)	i	-9	-18	7	-1	2	0	-3
O=c1oc(CCCO)cc2ccc(C#Cc3ccsc3)cc12	/	/	-12	-45	25	6	-6	/
Cc1cccn2c(=O)c(C=O)c(N3CCCCC3)nc12	i	5	-12	-6	-15	-1	5	10
O=C(NC1CCCCC1)c1ccc2c(c1)OCCO2	i	-12	-25	-12	2	1	2	2
CCCCOC(=O)C(C)Sc1n[nH]c(=O)[nH]c1=O (stereo not drawn)	i	-7	/	-58	3	1	2	4
Cc1ncc(CO)c(CO)c1O	i	/	-9	14	0	2	5	/

The listing picks up, starting two compounds before the break.
SMILES	Rce1 inhib	eIF4H inh	UUG fidelity	Env fusion inh	CSC inhib	MT1-MMP act inh	MT1-MMP act inh RFP	PABP FP inh	others
CCOC(=O)N1CCC(NC(=O)C2CCCN(Cc3nc(-c4ccc(CC)cc4)oc3C)C2)CC1 (stereo not drawn)	i	-12	/	21	11	-1	-24	12
O=c1oc(CCCO)cc2ccc(C#Cc3ccsc3)cc12	/	/	-12	-45	25	6	-6	/
O=S(Cc1ccc(Cl)cc1)CC(O)COCc1ccc(Cl)cc1 (stereo not drawn)	i	-6	0	-39	-5	4	-1	-2
Cc1nc(N2CCN(Cc3ccc4c(c3)OCO4)CC2)c2cc(-c3ccccc3)sc2n1	i	-10	/	-11	-5	0	-4	14
COc1ccc(S(=O)(=O)NNC(=O)C23CC4CC(CC(C4)C2)C3)cc1[N+](=O)[O-]	i	/	/	76*	-16	3	-1	/
CN(CC(=O)Nc1ccc(F)cc1)C(=O)C1CC(=O)N(Cc2ccccc2)C1 (stereo not drawn)	i	9	-12	7	-5	3	-2	26
O=C1N(c2ccccc2)C[C@@H]2C[C@@H](c3cccc4c3OCO4)N3CCC[C@@]123	i	-1	/	-10	-12	-1	3	-3
C[C@H](CO)N1C[C@H](C)[C@@H](CN(C)C(=O)Nc2ccc3c(c2)OCO3)Oc2ccc(NC(=O)Nc3ccc4c(c3)OCO4)cc2C1=O	/	/	-2	-7	-7	5	6	/
Cc1ccc(S(=O)(=O)/N=C(/Nc2c(C)cccc2C)c2ccccc2)cc1	/	/	-1	7	-9	2	-1	/
Cc1nc(N)sc1C(=O)N/N=C/c1ccccc1[N+](=O)[O-]	i	-7	6	-11	-7	-3	-6	4
Cc1nn(CCCC(=O)Nc2cnn(Cc3ccc(F)cc3)c2)c(C)c1[N+](=O)[O-]	i	0	-5	1	-20	-4	-4	5
OCCCc1nc2n(n1)C(c1cccs1)C=C(c1ccc(Br)cc1)N2 (stereo not drawn)	i	?	/	/	12	/	/	16
CCOc1ccc(NC(=O)C2CCCN2S(=O)(=O)c2ccc3c(c2)C(C)(C)C(=O)N3C)cc1 (stereo not drawn)	i	1	-11	0	2	0	-6	-7
Oc1cc(Nc2ccncc2)cc2cccnc12	/	/	-29	-48	/	4	4	/
Cc1ccc(NC(=O)Nc2cccc(Cl)c2)c(C(=O)O)c1	i	2	/	-3	-6	-2	0	15
CCN(CC)C(=N)/C(C#N)=N/Nc1ccccc1	i	1	-4	-13	-1	4	0	2
COc1ccccc1OCc1cc(C(=O)N2CCCC(OCc3cccnc3)C2)no1 (stereo not drawn)	i	-3	-16	/	-4	1	-1	-1
CC1(C)NC(=O)N(CC(O)CN2CCCC2)C1=O (stereo not drawn)	i	-6	/	-54	-17	3	-2	1
COc1ccccc1N1CCN(C(=O)C2CCN(S(=O)(=O)c3ccc(F)cc3)CC2)CC1	i	-1	-4	-38	-5	9	5	-7
Cc1oc(=O)c(NC(=O)c2ccccc2)cc1C(N)=O	i	-1	/	6	-5	5	9	1
O=C(CN1C(=O)CSc2ccccc21)NC1CCCC1	i	5	-15	/	-3	1	-3	1
CC(C)(C)n1nc2c(c1NC(=O)c1ccccc1F)CS(=O)C2 (stereo not drawn)	i	1	-17	6	-1	-3	-3	-1
COc1ccc(NC2CS(=O)(=O)CC2NCc2ccccc2)cc1 (stereo not drawn)	i	4	7	/	-18	0	3	15
CN(C)S(=O)(=O)c1ccc(Cl)c(NC(=O)CN2CCN(Cc3ccc4c(c3)OCO4)CC2)c1	i	-5	/	24	-5	2	-13	-9
O=C1CN(C(=O)COc2ccc(F)cc2Cl)c2ccccc2N1	i	0	-17	-2	-3	-5	-2	1
Cn1c(Cc2cccs2)nnc1SCC(=O)N1CCCc2ccccc21	i	-5	-13	-46	-13	-1	2	-2
CCCS(=O)(=O)NC(=O)C1(C)CCCN(C(=O)c2cc(C)on2)C1 (stereo not drawn)	/	/	3	-11	/	0	6	/
Further compounds.
SMILES	Rce1 inhib	eIF4H inh	UUG fidelity	Env fusion inh	CSC inhib	MT1-MMP act inh	MT1-MMP act inh RFP	PABP FP inh	others
Cn1nc(-c2ccccn2)nc2c(=O)n(C)c(=O)nc1-2	i	45	-79	68*	120*	-25	-31	24
CCC(C)(C)n1nnnc1C(c1cc2ccc(OC)cc2[nH]c1=O)N1CCc2ccccc21 (stereo not drawn)	i	-2	/	-54	-8	-6	-3	20
C=CCn1c(SCC(=O)N(C)C)nc2sc3c(c2c1=O)CCC3	i	-2	-19	2	1	8	2	-11
Cc1cc(NC(=O)CNCC(c2ccccc2)N(C)C)c([N+](=O)[O-])cc1C (stereo not drawn)	i	-7	-8	15	18	-1	0	-10
CCOP(=O)(c1ccc(N(C)C)cc1)C(O)c1ccncc1 (stereo not drawn)	i	-7	/	-22	1	1	0	-2
Cc1nn(Cc2ccccc2)c(C)c1NC(=O)CCCn1nc([N+](=O)[O-])c(Cl)c1C	i	-10	-2	-52	-16	9	3	-12
Nc1ccc2nn(-c3cccc4ccccc34)nc2c1	i	91*	/	/	-8	1	4	16	eIF4H inh retest=79*;PABP FP inh retest=47
CCCCc1nnc(NC(=O)c2ccc(-n3cncn3)c([N+](=O)[O-])c2)s1	i	/	-8	-14	-4	-1	2	/
CCNc1nc(NCC)nc(N/N=C/c2ccc(O)c(OC)c2)n1	i	-15	-14	8	-16	6	1	2
COc1ccc(COC(=O)N/N=C(\C)CC(=O)Nc2ccc(Cl)cc2)cc1	i	-1	-15	/	32	-2	0	6
CCn1c(SCC(=O)N(C)C2CCS(=O)(=O)C2)nnc1-c1ccccc1 (stereo not drawn)	i	4	-7	12	-10	1	2	4
CC1(C)CC(=O)C(/C=N/n2c(C(F)(F)F)nc3ccccc3c2=O)=C(O)C1	i	16	-10	/	-8	5	5	2
CCCOCC(O)CC(Cc1ccccc1)C(=O)NN (stereo not drawn)	i	-8	/	-2	-12	-2	-2	-9
Cc1cc(NC(=S)N(Cc2cccc(Br)c2)CC2CCC(C(=O)O)CC2)ccc1Cl (stereo not drawn)	i	5	/	-5	/	3	2	2
Cc1cccc(Cn2c(N(C)Cc3ccccc3)nc3c2c(=O)[nH]c(=O)n3C)c1	i	-7	6	19	1	-4	-7	3

Bioassay records from PubChem BioAssay.
